GLA inh pH 4.5 – alpha-galactosidase A (human) inhibition, pH 4.5; P06280; purified enzyme, 4-MU-alpha-Gal fluorescence, pH 4.5; activity change, negative = inhibition, % at 105 µM; 230,000 tested, under 10 active; AID 1467; inconclusive = small, poorly fitted or top-dose-only inhibition, or a rising curve; inactive = flat fitted curve, though single readings scatter; no compound was filed as active;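 also: 0% = full activity with enzyme and -100% = basal without enzyme; dose as in the result columns while the protocol names 77 µM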
Target sequence (P06280 whole entry, looked up): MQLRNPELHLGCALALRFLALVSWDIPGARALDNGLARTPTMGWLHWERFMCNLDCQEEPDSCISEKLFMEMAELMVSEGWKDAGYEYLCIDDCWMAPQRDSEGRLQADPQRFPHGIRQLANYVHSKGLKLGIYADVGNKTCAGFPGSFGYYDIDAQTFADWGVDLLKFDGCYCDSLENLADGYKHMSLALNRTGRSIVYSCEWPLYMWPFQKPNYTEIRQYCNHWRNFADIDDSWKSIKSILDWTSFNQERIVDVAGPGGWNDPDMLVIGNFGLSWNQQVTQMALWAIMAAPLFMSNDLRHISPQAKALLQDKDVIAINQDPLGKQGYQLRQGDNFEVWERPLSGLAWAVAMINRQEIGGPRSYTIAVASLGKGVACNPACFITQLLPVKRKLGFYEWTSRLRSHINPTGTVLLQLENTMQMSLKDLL
Rango-impB inh – prevents formation of the Rango-importin beta complex. actives 0.031% (n = 340,000). Q14974. Rango CFP/YFP FRET sensor + importin beta, 45 min. AID 540263. Potency, µM (top dose mostly 92.2 µM), for inactives: at the highest dose inhibition of complex formation; active = rising FRET ratio curve, often small or poorly fitted; inconclusive = mostly compound fluorescence or quenching in the first reads; inactive = flat curves in all reads;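 also: potency is read from the fitted curve at half-maximal effect; 0% = DMSO wells and 100% = buffer wells lacking importin beta; nearly all actives have a fitted effect of over 15% in size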
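Inhibition scored from the CFP 486 nm/YFP 530 nm FRET ratio 45 min after adding 0.125 microM importin beta to 50 nM Rango biosensor preincubated 5 min with compound (room temperature, PBS with DTT, Tween-20, BSA). No-importin wells as positive control.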
miR-21 FLuc – raises the signal of a miR-21 reporter; 340,000 tested, under 10 active; Potency, µM (titrated, usually from 38.3 µM), inactives show top-dose reporter change, positive = more light; AID 2288; HeLa miR-21 FLuc reporter, luciferase, 48 h; active = well fitted rising curve with a large enough effect; inconclusive = small, poorly fitted or top-dose-only effect; inactive = no such curve, though single readings can be large or run the other way;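 also: % of control where 0% means no effect; miR-21 action dims this reporter so a rising signal means less miR-21 action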
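HeLa miR-21-FLuc reporter line, endogenous miR-21; 2000 cells/well in DMEM/10% FBS; compound titration up to ~40uM final, 48 h, 37 degree Celsius; luciferase detection reagent, 15 min lysis, CCD luminescence.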
Rango dissoc inh – inhibition of RanGTP-driven Rango-importin beta dissociation. AID 540253. Biochemical FRET Rango-importin beta, RanGTP-induced dissociation. O95149+P62826. Potency, µM (titrated, usually from 46.1 µM), without a hit: top-dose activity change, negative = inhibition. actives 0.071% (n = 340,000); active means falling FRET ratio curve, often poorly fitted, with flat reads before Ran was added; inconclusive means other falling curves, or compound fluorescence or quenching; inactive means flat or rising ratio curve;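 also: potency is read from the fitted curve at half-maximal effect; % of control where 0% means no effect; nearly all actives have a fitted effect of over 45% in size; -100% = wells without RanGTP and RCC1; the record marks most hits as doubtful in a second field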
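Two FRET readings bracket the reaction: one 5 min after compound meets Rango–importin beta, another 45 min after RanGTP-RCC1 (0.6 uM Ran, 0.2 uM RCC1, 2 mM GTP) is added. Only the second defines inhibition.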
* = called active by the depositor; ? = inconclusive; · = no result given; & = joins results of further samples. Only part of the results is shown; count on the stated rates, not on these rows.

The first two entries, to show the layout:
Results follow in this order: GLA inh pH 4.5	Rango-impB inh	Rango dissoc inh	miR-21 FLuc
> Cc1ccc(/C=N/NC(=O)CSc2nc3ccccc3c(=O)n2-c2ccccc2)s1
→ -2	-1.8%	12%	-4%
> S=C1NC2(CCCC2)Nc2ccccc21
→ -1	?	?	-36%

The list itself, repeating the preview:
Results follow in this order: GLA inh pH 4.5	Rango-impB inh	Rango dissoc inh	miR-21 FLuc
> Cc1ccc(/C=N/NC(=O)CSc2nc3ccccc3c(=O)n2-c2ccccc2)s1
→ -2	-1.8%	12%	-4%
> S=C1NC2(CCCC2)Nc2ccccc21
→ -1	?	?	-36%
> Cc1ccc(N/C(N)=N/c2nc3c(c(=O)[nH]2)CCCC3)c(C)c1
→ 7	2.0%	7%	-8%
> O=C(NCCS(=O)(=O)N1CCC2(CC1)OCCO2)c1ccc(F)cc1
→ ·	-1.0%	29%	·
> COc1ccc(OC)c2nc(-c3ccncc3)ccc12
→ ·	2.6%	-5%	-37%
> O=C1NC[C@H](Cc2ccccc2)N(C[C@H]2CCCN2C[C@H](Cc2ccccc2)N2C[C@H](Cc3ccccc3)N(CCc3ccccc3)C(=O)C2=O)C1=O
→ ·	-2.9%	-1%	·
> CCOC(=O)C1CCCN(Cc2cc(=O)oc3cc(C)c(C)cc23)C1 (stereo not drawn)
→ 8	-11%	-8%	-34%
> CC(C)C[C@H](NC(=O)N1CCn2c1nc1ccccc12)C(=O)NCc1ccco1
→ ·	-1.2%	-8%	1%
> Cc1c(CBr)[n+](=O)c2c(n1[O-])C(Br)CCC2Br (stereo not drawn)
→ 3	-0.4%	-1%	-3%
> Cc1noc(C)c1COc1cccc(C(=O)OCC(=O)NC(=O)c2ccc(OC(F)F)cc2)c1
→ -4	-3.8%	-12%	2%
> CN(CCc1ccccc1)C(=O)c1ccc(NC(=O)Cc2ccc(NC(=O)C3CCN(C(=O)C4CCCCC4)CC3)cc2)cc1
→ ·	1.3%	-3%	·
> COc1cc(OC)c(C(=O)Nc2ccccc2-c2ccccc2)cc1OC
→ -4	0.1%	7%	0%
> CCCCOc1ccc(C(=O)NNC(=S)NC(=O)CC)cc1
→ 7	-1.2%	-4%	18%
> Cc1nnc(N/N=C/c2ccccc2C(F)(F)F)n1N
→ ·	?	-11%	-3%
> CCOC(=O)C(C)Sc1nc(-c2ccccn2)ncc1OC (stereo not drawn)
→ 1	-1.6%	-1%	-4%
> CCn1c(=O)c(CCC(=O)NCCN2CCOCC2)c(C)c2c(C)nn(-c3ccccc3)c21
→ ·	-0.2%	15%	0%
> COc1ccc(C(=O)c2ccc(Cl)cc2)c2ccccc12
→ 1	1.2%	-9%	-1%
> O=C(Cn1cnc2c(NCc3ccccc3)ncnc21)NCc1ccc2c(c1)OCO2
→ ·	-5.6%	-18%	·
> CC(C)(C)c1ccc(C(=O)N/C(N)=N/c2nc3ccccc3o2)cc1
→ -3	0.3%	0%	5%
> CC(C)N(CC#CC(O)(c1ccccc1)c1ccccc1)CCO
→ 3	5.0%	11%	-9%
> COc1ccc(/C=C/C(=O)N(CCC(N)=O)c2ccccc2)cc1S(=O)(=O)N1CCOCC1
→ ·	-1.6%	-13%	·
> CSc1ccccc1NC(=O)c1cc(C(C)C)on1
→ -5	-1.4%	1%	-50%
> CCn1c(=O)c(C(=O)NNS(=O)(=O)c2ccc(Br)cc2)c(O)c2ccccc21
→ 2	-0.5%	0%	2%
> O=C1C(=O)N(CCN2CCOCC2)C(c2ccccn2)/C1=C(/O)c1ccccc1 (stereo not drawn)
→ 7	?	?	-11%
> CCc1ccc(NC(=O)NNC(=O)c2cc3ccccc3cc2O)cc1
→ ·	?	?	-6%
> CN(CC(=O)Nc1ccccc1C(F)(F)F)C(=O)COc1ncnc2sccc12
→ -2	-2.4%	-16%	-2%
> CC(Sc1ccccn1)C(=O)Nc1ccc(S(N)(=O)=O)cc1 (stereo not drawn)
→ -5	?	1%	-2%
> CC(C)N(C(=O)C[n+]1ccc(/C=N/O)cc1)C(C)C
→ -9	1.6%	3%	2%
> CC(C)(C)C(=O)NNC(=O)COc1ccc2ccccc2c1Br
→ -26	-2.5%	-15%	-1%
> O=C1CNC(=O)N1CC(O)Cn1c2ccccc2c2ccccc21 (stereo not drawn)
→ -9	-3.6%	-2%	-5%
> CCC(C)(C)n1c(=O)[nH]c2c(c1=O)CCC2
→ -5	-0.2%	0%	-1%
> COc1ccc([C@H]2CC(=O)C=C(c3ccc(C)c(F)c3)C2)cc1
→ ·	-0.4%	2%	·
> CCCCCOC(=O)Cn1c(=O)oc2ccccc21
→ -1	-3.4%	-7%	-1%
> Cc1ccc(N/C(N)=N/c2nc(CSc3nnc(C)s3)cc(=O)[nH]2)c(C)c1
→ 0	1.2%	-8%	22%
> CC(=O)Oc1c(C(=O)c2nnc(C)o2)c(=O)n(C)c2ccccc12
→ 5	?	-14%	-2%
> CCOC(=O)Cn1nnnc1CN(Cc1ccc(OC)cc1)Cc1cc2cc(CC)ccc2[nH]c1=O
→ -3	2.0%	1%	-15%
> CCn1c(CCNC(=O)c2ccc(C)cc2)nnc1SCc1ccc(Cl)c(Cl)c1
→ -18	-1.9%	2%	-4%
> CCCOC(=O)CC1C(=O)NCCN1C(=O)OC(C)(C)C (stereo not drawn)
→ -13	-0.9%	-5%	-2%
> CCC(C)NC(=O)CN1C(=O)COc2ccc(S(=O)(=O)N3CCOCC3)cc21 (stereo not drawn)
→ ·	-1.0%	?	1%&5%
> CC1Cc2nc(SCC(=O)N3CCOCC3)n(-c3ccccc3)c(=O)c2S1 (stereo not drawn)
→ -4	-3.9%	16%	-2%
> NS(=O)(=O)c1ccc(NC(=O)CSC2=NC(=O)C(c3ccccc3)C(=O)N2)cc1 (stereo not drawn)
→ 0	-0.8%	?	1%
> COc1ccc(CCOC(=O)CNC(=O)c2ccc(Cl)cc2Cl)cc1
→ ·	0.4%	-2%	1%
> CCc1ccccc1NC(=O)CNC(=O)c1cc(C2CC2)nn1-c1ccccc1
→ ·	-1.1%	-15%	·
> COc1cc(OC)c(C(=O)NNC(=S)NC2CCCCC2)cc1OC
→ 7	-1.6%	-19%	0%
> Cc1nnc2n1N=C(c1ccc3c(c1)NC(=O)CO3)CS2
→ 1	-5.8%	0%	-2%
> Cc1cccc(N2C(=O)CC(Sc3nnc(C)s3)C2=O)c1 (stereo not drawn)
→ 3	0.9%	-2%	-4%
> CCOc1cc(C(=O)Nc2ccc(C)cc2C)ccc1OCC(=O)N1CCCCC1
→ 4	-0.5%	20%	-1%
> CC(NS(=O)(=O)c1ccc(Br)cc1)c1ccccc1 (stereo not drawn)
→ ·	-0.5%	-17%	-3%
> CCn1c2ccccc2c2nnc(SCN3C(=O)c4ccccc4C3=O)nc21
→ ·	0.1%	-1%	·
> CCCNC(=S)NC1CCCC1
→ 2	0.2%	1%	-4%
> COc1cc(C(=O)NCc2cccnc2)ccc1OCC(=O)Nc1cccc(C(F)(F)F)c1
→ ·	0.2%	3%	·
> COc1cccc(C(=O)O/N=C(\N)Cc2ccc(Cl)cc2)c1
→ 2	-1.3%	5%	-17%
> COCCNC(=O)CNC(=O)c1nn(-c2ccc(OC)c(Cl)c2)c(=O)c2ccccc12
→ -3	-4.0%	29%	1%
> CC1(C)Cc2c(sc(NC(=O)C(=O)N3CCCCC3)c2C(=O)O)CO1
→ ·	?	-7%	1%
> O=C(COc1ccc2c(c1)CCC2)N1CCc2ccccc21
→ 1	0.7%	0%	-63%
> CC(=O)N(c1ccccc1)C1CCCC1
→ 0	-1.6%	-6%	-1%
> Cc1ccccc1Oc1ccc2c(c1)[C@@H]1C[C@H](N(C)C(=O)Nc3cc(Cl)cc(Cl)c3)[C@H]([C@H](C)O)C(=O)N1CC2
→ ·	-0.2%	-11%	·
> O=C(C1CCCN(S(=O)(=O)c2cccs2)C1)N1CCC(N2CCCCC2)CC1 (stereo not drawn)
→ 0	-2.2%	4%	-2%
> C/C(=N\Nc1ccc(S(N)(=O)=O)cc1[N+](=O)[O-])c1ccccc1O
→ -4	0.1%	-9%	-14%
> CC(=O)N1c2ccc(S(=O)(=O)NCC3CCC(C(=O)NC4CCCCC4C)CC3)cc2CC1C (stereo not drawn)
→ ·	-2.6%	-4%	14%

The list continues.
Results follow in this order: GLA inh pH 4.5	Rango-impB inh	Rango dissoc inh	miR-21 FLuc
> COc1ccc(CC(=O)N2CCN(c3ccc(F)cc3)CC2)cc1
→ ·	2.3%	1%	0%
> COc1ccc(Nc2nnc(-c3ccc(O)cc3)c3ccccc23)cc1
→ 3	4.0%	10%	-11%
> O=C(CS(=O)(=O)c1ccc(F)cc1)N1CCOCC1
→ ·	-0.8%	0%	-2%
> COc1cccc(CNC(=O)COC(=O)/C(C#N)=C/c2ccc(N(C)C)cc2)c1
→ ·	?	?	·
> COc1cc(NC(=O)CSc2nnc3ccc(-c4cccnc4)nn23)cc(OC)c1
→ ·	1.1%	20%	·
> O=C1c2ccccc2CC1(Cc1ccccc1)Cc1ccccc1
→ -4	0.2%	0%	-2%
> CC(C)(C)N1C(=O)c2ccc(C(=O)O)cc2C1=O
→ -2	3.7%	7%	-1%
> Cc1cc(C(=O)OCC(=O)Nc2ccc(F)cc2)c(C)o1
→ -3	4.6%	11%	-6%
> CC1CC(C)CN(C(=O)CCCn2c(=O)c3cccn3c3cccnc32)C1 (stereo not drawn)
→ ·	-0.8%	10%	-7%
> COc1ccc(NCc2ccc(OC)c(Cn3ccnc3)c2)c(OC)c1
→ ·	-5.2%	25%	-13%
> CCOC(=O)[C@H]1[C@H]2COc3ccc(Cl)cc3[C@@H]2N2C(=O)c3cc(OC)ccc3NC(=O)[C@@]12C
→ ·	0.4%	2%	·
> CCC1CCCCN1C(=O)COC(=O)c1cc(C)nc2ccccc12 (stereo not drawn)
→ ·	-4.2%	?	·
> COc1ccc(OC)c(C2C(C(C)=O)=C(O)C(=O)N2CCC(=O)O)c1 (stereo not drawn)
→ 1	1.2%	-7%	-5%
> COc1ccc(CCNC(=O)CCNC(=O)c2ccccc2Cl)cc1
→ ·	2.6%	-11%	-1%
> O=C(c1cc(C2CC2)on1)N1CCN(c2ccc(F)cc2)CC1
→ -3	-1.3%	2%	-6%
> C[C@@H]1O[C@@H](Oc2c(-c3cc(O)c(O)c(O)c3)oc3cc(O)cc(O)c3c2=O)[C@H](O)[C@H](O)[C@H]1O
→ -9	6.9%	23%	-1%
> Clc1ccc(C2=NOC(c3nnc(-c4ccccc4)o3)C2)cc1 (stereo not drawn)
→ -3	0.4%	1%	-2%
> CN(C(=O)COC(=O)c1cccnc1Nc1ccccc1F)C1CCS(=O)(=O)C1 (stereo not drawn)
→ 0	2.8%	-7%	-21%
> COc1ccccc1NS(=O)(=O)c1cccc(C(=O)NCc2ccncc2)c1
→ ·	-1.8%	0%	·
> Cc1ccc2cc(-c3noc(C4CCCCC4)n3)c(=O)[nH]c2c1
→ -21	-1.4%	12%	-1%
> O=C(CCSc1ccccc1)NCC1CCCO1 (stereo not drawn)
→ -3	1.4%	-14%	-14%
> COc1ccc2nc(C)cc(SCC(=O)Nc3c(C)cc(C)cc3C)c2c1
→ 0	3.0%	7%	0%
> COc1ccc(OC)c(N(CC(=O)NCc2ccccn2)S(C)(=O)=O)c1
→ 3	3.3%	0%	0%
> CC1CCCCN1CCCNc1ccc(C(CC(N)=O)NC(=O)c2ccccc2)cc1[N+](=O)[O-] (stereo not drawn)
→ ·	0.1%	0%	-1%
> COc1ccc(C2=Nn3c(nnc3-c3ccncc3)SC2)cc1OC
→ -1	-0.2%	0%	-10%
> CCOc1ccc(Br)cc1S(=O)(=O)Nc1cccc(S(=O)(=O)N(CC)CC)c1
→ -1	-1.6%	6%	-4%
> COc1cc(C)c2occ(/C(C)=N\O)c2c1
→ 5	3.7%	-11%	-18%
> Cc1ccccc1OCCC(=O)Nc1ccccc1C(=O)N1CCCCC1
→ ·	-0.3%	-7%	·
> COC(=O)c1ccc(N2CCOCC2)c(NC(=O)c2ccc(Br)o2)c1
→ ·	0.4%	0%	-5%
> COc1ccc(OC)c(N/C(C)=C/C(=O)c2ccc(Br)cc2)c1
→ -2	?	-15%	-31%
